Bioassay records as filed in PubChem BioAssay.
BJeLR lethal – MLPCN primary cell-based screen for lethality selective to Ras in HRASV12 cells | actives 0.17% (n = 300,000) | AID 1554, 2009 | BJeLR (HRASV12) viability, CellTiter-Glo ATP luminescence, 48 h; reference of the scale not given here | inhibition, % (test concentration not listed);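 active = replicate mean above 50%; inconclusive = above 50% but judged a plate artefact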;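 also: 50 nL library stock added to about 25 µL; numbers are from one replicate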
Bead autofluor – flagged as autofluorescent in microsphere protease counterscreen | actives 3.1% (n = 360,000) | fluorescence intensity (no concentration beside the values) | compound autofluorescence counterscreen, microsphere flow cytometry; active compounds read high | AID 624483;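 active = at least 3 SD above the mean of all compounds, about 16000 in these data; inconclusive = too few beads counted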;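 also: 100 nL of 1 mM stock went into each well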
Mtb hypoxia rep – PubChem AID 1159583; M. tuberculosis hypoxia-regulated fluorescent reporter, fluorescence; fluorescence inhibition, % (no concentration beside the values); actives 0.1% (n = 300,000);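 active = 35 to 45% if threefold the growth effect, above 45% if 1.5-fold the growth effect; inactive = the rest, general growth blockers included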;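 also: wells of about 50 µL received 100 nL stock; 0% = vehicle wells and 100% = reference inhibitor wells; whole bacteria with a GFP reporter of the hypoxia response; strong numbers were not always called active; many hits fall short of the cut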
PrP UTR inh – inhibition of PrP 5' UTR reporter expression | cell-based PrP 5' UTR mRNA reporter, plate reader | inhibition, % (test concentration not listed) | actives 0.35% (n = 340,000) | AID 488862, 2010;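 active = every replicate at 50% or more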;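 also: 0 = median of the neutral control wells; tested in H4 reporter cells; numbers are from one replicate; inactives centre near -14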
ugtP null kill – growth inhibition of ugtP-null S. aureus, primary screen, RN4220 ugtP deletion, OD600; growth inhibition, % (concentration not given with the values); 16 h; some inactives read as strong as hits; actives 0.54% (n = 330,000);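 active = z-score under -3 and OD600 up to 0.15 on both plates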;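 also: plate controls were untreated wells for no effect and antibiotic for full effect; wells of about 80 µL received 100 nL stock; the first replicate is given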
RN4220 kill – growth inhibition of S. aureus RN4220, primary screen, OD600. 16 h. AID 1259311, 2017. inhibition, % (concentration not given with the values). actives 0.33% (n = 330,000);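 active = z-score of -3 or lower and OD600 up to 0.18 on both plates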;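 also: plate controls were untreated cells for no effect and reference antibiotic for full effect; stock transfer was 100 nL into about 80 µL; one replicate is shown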
Mtb hypoxia rep growth – also measured in Mtb hypoxia rep; calls as there; growth inhibition, %; measured here: M. tuberculosis growth (absorbance);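 0% = vehicle and 100% = reference antibiotic; read after six days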
* marks the source's active call; other numbers are inactive results; ? = inconclusive; . = no result given. Rows were taken by chance; overall some 4% were active at least once.

SMILES	BJeLR lethal	Bead autofluor	Mtb hypoxia rep	Mtb hypoxia rep growth	PrP UTR inh	ugtP null kill	RN4220 kill
Cc1ccc(N2C3=C(C(=O)CC(C)(C)C3)C(c3cn(C)nc3C)C3=C2CC(C)(C)CC3=O)cc1	-2	20845*	1	18	-13	-5	6.5
COc1ccc(OCC(=O)N/N=C(\CCC(=O)O)c2cccs2)cc1	1	3362	.	.	-15	.	.
CCOC(=O)c1c(C)[nH]c(C)c1C(=O)COC(=O)c1ccc([N+](=O)[O-])s1	.	7766	18	13	-21	-4	2.5
COc1ccc(CNc2ccc3c(c2)nc(C)n3C)cc1	-8	2714	.	.	-36	5	-0.8
COc1ccccc1N(C)S(=O)(=O)c1ccc(C(=O)NCc2ccc3c(c2)OCO3)cc1	2	4818	4	15	-4	-2	2.6
N#C/C(=C\C=C\c1ccccc1)c1nc(-c2ccc3c(c2)OCO3)cs1	2	3363	.	.	-6	.	.
O=C(Cc1ccccc1)N1CCN=C1SCc1ccc([N+](=O)[O-])cc1	3	2445	4	4	-1	1	-0.1
Cc1ccc(C)c(N2CCN(C(=O)C34CC5CC(C3)CC(n3nnc(C)n3)(C5)C4)CC2)c1	1	5493	-4	-3	-16	2	0.1
CCN(CC)CCCN1CC(O)=C(c2nc3ccccc3s2)C1=N	-3	2628	.	.	-16	-4	-3.5
CCn1c(/C=C/c2ccc(O)c(O)c2)nc2ccccc2c1=O	-9	3365	1	-2	-17	-2	13
COCCn1c(SCC(=O)c2[nH]c(C)c(C(C)=O)c2C)nc2ccccc2c1=O	4	3124	2	-6	-15	8	2.3
CCOC(=O)C1(Cc2ccccc2C)CCCN(C(=O)CCc2c(C)noc2C)C1 (stereo not given)	10	5647	8	8	-4	-2	2.6
CCc1nc2c(sc3nc4c(cc32)COC(C)(C)C4)c(=O)n1Cc1ccco1	6	5507	.	.	0	3	-1.7
N#CCC(=O)Nc1ccc(C(=O)NNC(=S)NC2CCCCC2)cc1	.	3738	-15	7	.	-4	-2.8
Cc1cc(C)nc(NN=C2CCSc3ccc(F)cc32)n1	.	.	9	21	.	1	-2.8
CC(=O)N1CCN(S(=O)(=O)c2cccc(C(=O)Nc3nc4ccccc4[nH]3)c2)CC1	-1	3274	.	.	-3	13	3.2
CCCCNC(=O)CCCCn1c(=S)[nH]c2c([nH]c3ccc(OC)cc32)c1=O	2	4172	-5	1	-47	-2	6.0
CCOC(=O)CC(C#N)c1cn(C)c2ccccc12 (stereo not given)	4	13969	4	8	-19	1	2.1
CCCNC(=O)N1c2ccccc2Sc2ccccc21	8	4618	20	2	-15	-2	2.7
CCOC(=O)CN1C(=O)C2Cc3ccccc3CN2C1=S (stereo not given)	3	2738	.	.	-6	.	.

3 compounds out of the list, arranged by count of non-hydrogen atoms, lowest first.
SMILES	BJeLR lethal	Bead autofluor	Mtb hypoxia rep	Mtb hypoxia rep growth	PrP UTR inh	ugtP null kill	RN4220 kill
CCCNC(=O)N1c2ccccc2Sc2ccccc21	8	4618	20	2	-15	-2	2.7
CCc1nc2c(sc3nc4c(cc32)COC(C)(C)C4)c(=O)n1Cc1ccco1	6	5507	.	.	0	3	-1.7
CCOC(=O)C1(Cc2ccccc2C)CCCN(C(=O)CCc2c(C)noc2C)C1 (stereo not given)	10	5647	8	8	-4	-2	2.6

New compounds follow:
SMILES	BJeLR lethal	Bead autofluor	Mtb hypoxia rep	Mtb hypoxia rep growth	PrP UTR inh	ugtP null kill	RN4220 kill
O=c1oc(-c2ccccc2Cl)nc2ccsc12	-5	3472	-14	-4	-14	-7	1.5
C=CCNC(=O)c1ccc(OC)cc1	3	4071	.	.	-14	.	.
Clc1ccc(-c2nnc3sc(-c4ccc(Br)o4)nn23)c(Cl)c1	-20	2428	-1	6	-13	4	18
CC(C)Oc1ccc(N2CC(C(=O)Nc3ccccn3)CC2=O)cc1 (stereo not given)	1	3217	2	0	-3	5	4.2
Clc1ccc(C2[C@H]3CN(Cc4cccnc4)[C@H](c4ccccc4)C34CC2(c2cccnc2)C4)cn1 (stereo not given in full)	10	6834	.	.	-28	.	.
Cn1ncc2cc(NC(=S)NC(=O)c3ccccc3)ccc21	4	17054*	2	2	-27	-1	7.0
CCOC(=O)N1CCN(c2c(NCCN3CCN(Cc4ccccc4)CC3)c(=O)c2=O)CC1	1	4290	8	8	-6	9	-0.3
COC(=O)c1c(CSc2ccc(C)c(C)c2)noc1C(=O)NCc1ccc(OC)cc1	0	3742	10	11	-20	8	-6.2
COc1cc2oc(=O)cc(-c3ccc(-c4ccc(O)cc4)cc3)c2c(OC)c1OC	.	3978	2	-6	-9	9	0.0
COc1ccc(C(=O)OCC(N)=O)cc1[N+](=O)[O-]	-2	9464	8	5	-18	7	3.2
Cc1cc(=O)oc2ccc(OCC(=O)N3CCC(C)CC3)cc12	0	4617	.	.	-28	-5	7.1
COC(=O)C1(NC(=O)NC23CC4CC(CC(C4)C2)C3)CCCCC1	-2	4538	14	8	-17	-1	0.6
O=C(CN(Cc1ccccc1Cl)C(=O)Cn1nnc(-c2cccs2)n1)NCC1CCCO1 (stereo not given)	-1	6424	1	0	-18	10	2.6
COc1cc(C2NC(=O)NC(O)(C(F)(F)F)C2C(=O)c2ccc(Cl)cc2)ccc1O (stereo not given)	.	4187	0	4	-22	4	17
O=C(COc1ccc(Br)cc1Cl)NCCCN1CCOCC1	3	6107	-1	13	1	-2	2.8
Cc1nnc(SCc2cn3ccsc3n2)n(N)c1=O	0	2498	10	6	-13	3	5.9
CCC1Nc2ncnc(N3CCN(c4ccccc4)CC3)c2N(Cc2ccc(OC)cc2)C1=O (stereo not given)	2	3302	-4	9	-6	-16	2.1
O=[N+]([O-])c1ccc(-n2nnnc2-c2ccccc2)cc1	7	2453	12	12	-21	7	4.1
CCOc1ccc(N=C2SCCCN2C(=O)c2c(CC)noc2C)cc1	-14	4081	-1	1	-33	5	2.7
C[C@H]1NS(=O)(=O)c2ccc(Br)cc2O[C@H]1c1ccccc1	.	3973	2	13	11	-12	3.9
Cc1ccccc1OCCCCCNCCO	-9	11071	6	9	-7	14	-0.2
COc1ccccc1N(CC(=O)N/N=C/c1ccccc1C(=O)O)S(C)(=O)=O	3	4594	.	.	-31	.	.
c1ccc(C(c2nnnn2Cc2ccco2)N2CCN(c3nc4ccccc4s3)CC2)cc1 (stereo not given)	5	2975	-4	1	-8	7	-2.3
O=C(NCc1ccco1)c1cc(-c2ccco2)on1	1	16474*	24	21	-52	0	4.1
O=C(Nc1ncn[nH]1)c1ccc(S(=O)(=O)N2CCOCC2)cc1	9	4437	5	-1	-24	6	3.0
Cc1cccc(NC(=O)CC2CCC2)c1	10	10904	-2	0	8	-2	-3.3
CSc1ccccc1C(=O)NCc1ccccc1	-2	3284	12	-3	11	11	11
Nc1nc(CN2CCC(Cc3ccccc3)CC2)nc(Nc2ccccc2)n1	1	9575	2	4	1	-9	0.6
CC(C)C(c1nnnn1C1CCCC1)N(C)C1CCCCC1 (stereo not given)	6	20923*	8	8	-54	-5	9.5
COc1ccc(-c2nc3n(c(=O)c2C#N)CCS3)cc1OC	2	3516	13	4	-9	8	7.9
COc1ccccc1/C=C/C=Nn1c(-c2n[nH]c3c2CCC3)n[nH]c1=S	.	.	21	23	.	-17	8.2
COc1ccc(OC)c(NC(=O)c2cccc(S(=O)(=O)N(Cc3ccccc3)c3ccccc3OC)c2)c1	9	3306	8	8	-2	7	4.5
Cc1ccc(CSc2nc3ccccc3c(=O)n2C)cc1	-12	4156	16	8	-19	5	8.6
O=C(Nc1ccncc1)Nc1cccc(Cl)c1	5	5121	10	1	-26	-7	-11
Cc1cccc(C)c1Nc1nnc(SCC(=O)NCCCN2CCCC2=O)s1	.	3474	1	7	-39	0	3.4
Cc1ccsc1CNC1CCCCC1	-5	3773	-1	10	-31	4	4.5
Cc1c(C=NNC(=O)c2cc(=O)[nH]c(=O)[nH]2)c2ccccn2c1C(=O)c1ccccc1	.	.	-1	2	.	11	2.8
CC(=O)Nc1ccc(/C=N/Nc2nc3ccccc3s2)cc1	10	4317	.	.	-51	.	.
C[C@@H]1CCC(=O)N(C[C@@H](C)CC#N)CC1	4	4016	.	.	20	.	.
O=C(O)C[C@H]1c2ccccc2S(=O)(=O)N1C1CCCCC1	-5	2864	.	.	-4	.	.

Profiles as entered above. Order of screens: BJeLR lethal	Bead autofluor	Mtb hypoxia rep	Mtb hypoxia rep growth	PrP UTR inh	ugtP null kill	RN4220 kill
O=C(Nc1ccncc1)Nc1cccc(Cl)c1 across the screens: 5	5121	10	1	-26	-7	-11
CC(=O)Nc1ccc(/C=N/Nc2nc3ccccc3s2)cc1 across the screens: 10	4317	.	.	-51	.	.
C[C@@H]1CCC(=O)N(C[C@@H](C)CC#N)CC1 across the screens: 4	4016	.	.	20	.	.
Cc1ccsc1CNC1CCCCC1 across the screens: -5	3773	-1	10	-31	4	4.5
Cc1c(C=NNC(=O)c2cc(=O)[nH]c(=O)[nH]2)c2ccccn2c1C(=O)c1ccccc1 across the screens: .	.	-1	2	.	11	2.8

Next section:
SMILES	BJeLR lethal	Bead autofluor	Mtb hypoxia rep	Mtb hypoxia rep growth	PrP UTR inh	ugtP null kill	RN4220 kill
O=C(CSc1nnc(-c2ccc3c(c2)OCO3)n1-c1ccccc1)c1ccccc1	-4	1855	0	15	-21	-22	-4.5
C=C(C)CN(CC)C(=O)CC1C(=O)NCCN1Cc1c(F)cccc1Cl (stereo not given)	-6	3748	7	1	-6	8	3.2
Cc1cccc(C(=O)NCC(=O)N2CC(=O)Nc3ccccc32)c1	-1	4531	-3	5	-21	6	2.1
O=C(CSc1nccc(=O)[nH]1)NCc1ccc2c(c1)OCO2	-10	5982	5	-4	-9	7	1.7
Brc1ccc(C=NNc2ccccn2)cc1	.	.	-6	1	.	-8	-2.1
COc1ccc(NC(=O)N2CCCc3ccccc32)cc1	-1	20850*	8	14	-28	-3	6.9
CCOC(=O)CNC(=S)N(Cc1ccccc1F)C1CCCCC1	3	3797	-4	7	-5	3	4.3
C=CCN=C1S/C(=C/c2cccc([N+](=O)[O-])c2)C(=O)N1CC=C	-6	.	0	-1	-1	4	1.3
Cc1ccc([N+](=O)[O-])cc1N=C(c1cccc(Br)c1)N1CCOCC1	3	3423	.	.	-5	3	-0.7
CC(Sc1nc(-c2ccccc2)cc(C(F)(F)F)n1)C(=O)N1CCCCC1 (stereo not given)	2	3353	15	8	-17	-3	-0.9
COc1ccc(-c2cc(-c3ccc(F)cc3)nc(N3CCN(C)CC3)n2)cc1	1	10327	20	12	-7	-14	-4.0
COCCNC(=O)CCc1ccc(S(=O)(=O)Nc2ccc(C)cc2)cc1	-3	10953	8	6	-18	5	3.7
COc1ccccc1OCC(O)CN1CCN(C(=O)c2ccccc2)CC1 (stereo not given)	3	3229	13	10	-31	16	1.6
CN(C(=O)C1CCCC1)C1CCS(=O)(=O)C1 (stereo not given)	3	.	8	4	-17	12	0.8
CC(Oc1ccc(F)cc1)C(=O)Nc1ccc2ccccc2c1 (stereo not given)	4	9093	12	13	-12	-1	1.1
Cc1ccc(NC(=O)CSc2nc3ncc(Br)cc3[nH]2)cc1C	5	4034	5	-1	-8	-11	0.8
Cc1ccccc1NC(=O)Cc1nc(COC(=O)CCc2ccccc2)cs1	.	2894	5	-4	-14	6	4.2
C/C(=N\NC(=O)c1nn(C)cc1Br)c1cccc(NC(=O)c2ccncc2)c1	-3	2006	.	.	-18	.	.
O=C(NC(=S)NCc1ccc(F)cc1)c1ccccc1	2	7230	-5	-3	-13	6	6.2
COc1cccc(C(=O)N/N=c2/oc3ccccc3cc2C(N)=O)c1	-2	3576	.	.	-26	.	.
CCc1cc2c(=O)n(-c3ccc(C)cc3)cnc2s1	-7	2972	11	9	-88	-3	8.6
O=C(CCc1ccccc1)Nc1ccccc1C(F)(F)F	1	2690	10	2	12	-5	9.8
COc1ccc(CN2CCC(=O)N([C@H](CO)c3ccccc3)CC2)cc1OC	-1	3540	.	.	1	.	.
O=C1CC(N(CCc2ccccc2)C(=S)Nc2ccccc2)C(=O)N1c1ccccc1 (stereo not given)	13	2662	8	0	-1	-9	1.2
Cc1ccccc1NC(=O)Cc1nc(COC(=O)c2ccc(Cl)nc2)cs1	-4	?	4	-1	-4	11	0.7
COc1cccc(OCc2cc(C(=O)NCCc3cccc(C)n3)no2)c1	3	?	.	.	-13	.	.
Cc1cccc(Nc2nc(N)nc(CN3CCC(C)CC3)n2)c1C	1	12567	8	2	-15	1	1.4
O=C(CNC(=O)N1CC(=O)Nc2ccccc21)NCc1cccc(Cl)c1	-3	5555	5	-2	-11	8	0.3
